# Screening results as filed in PubChem BioAssay.
# TRPML1 agonist: activates the human TRPML1 channel | Q9GZU1 | TRPML1-expressing cells, Ca2+ dye fluorescence, FDSS; host cell line not named in the record; reference of the full effect not given here | activation, % (no concentration beside the values) | hit rate 0.12% among 410,000 | AID 624414; in the data active = activation above about 50%; inconclusive = about 30% to 50%; inactive = below about 30%; also: 0% is about no effect; the text of the record puts the active cut at 80%
# Target sequence (Q9GZU1 whole entry, looked up): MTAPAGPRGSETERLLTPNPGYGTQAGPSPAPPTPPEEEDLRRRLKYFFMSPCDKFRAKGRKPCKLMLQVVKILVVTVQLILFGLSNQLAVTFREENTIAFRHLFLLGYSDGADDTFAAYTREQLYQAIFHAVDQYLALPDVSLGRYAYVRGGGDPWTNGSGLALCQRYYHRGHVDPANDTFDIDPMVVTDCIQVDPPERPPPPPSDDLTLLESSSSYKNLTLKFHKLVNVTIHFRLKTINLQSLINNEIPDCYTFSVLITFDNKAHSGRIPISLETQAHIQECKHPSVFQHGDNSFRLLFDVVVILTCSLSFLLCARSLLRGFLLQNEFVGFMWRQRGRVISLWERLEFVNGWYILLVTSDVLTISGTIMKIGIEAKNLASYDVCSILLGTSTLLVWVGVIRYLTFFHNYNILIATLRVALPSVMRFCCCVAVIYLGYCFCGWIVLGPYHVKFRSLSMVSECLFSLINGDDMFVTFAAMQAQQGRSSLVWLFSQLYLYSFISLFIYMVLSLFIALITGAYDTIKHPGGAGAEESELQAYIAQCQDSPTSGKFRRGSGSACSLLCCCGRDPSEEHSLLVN
#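 In this qHTS format, compounds were pin-transferred onto Ca8-dye-loaded TRPML1-DL cells induced with Tet overnight, and intracellular Ca2+ fluorescence was recorded kinetically for 110 s after a 10 s baseline. A subsequent 4uM final 54-4 (EC80) addition followed by a second 110 s read served as the antagonist phase.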
# Six1-Eya2 inh: Six1/Eya2 interaction inhibition; activity change, % (concentration not given with the values); Q15475+O00167; hit rate 0.56% among 360,000; AlphaScreen GST-Six1/His-Eya2 binding, biochemical; active compounds read low; control for the full effect not named in the record; in the data active = activity change below about -65%; inconclusive = about -30% to -65%; inactive = above about -30%; also: % is scaled to controls: 0 for no effect and ±100 for the full control effect
#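 AlphaScreen luminescence read after one hour at 37 °C in darkness. Pin-transferred compounds met GST-Six1 and His-Eya2 protein (5X stock 250 nM/500 nM) plus glutathione donor and Ni-chelate acceptor beads (5X, 50 ug/mL).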
# TRPML1 inh: inhibitors of human TRPML1 channel; hit rate 0.02% among 390,000; Q9GZU1; activity change, negative = inhibition, % (test concentration not listed); TRPML1-inducible cells, Ca2+ dye fluorescence, FDSS; active compounds read low; inhibition of EC80 agonist-evoked calcium signal; in the data active means activity change below about -50%; inconclusive means about -30% to -50%; inactive means above about -30%;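 also: stimulus is agonist 54-4 at its EC80 concentration; % is scaled to controls: 0 for no effect and ±100 for the full control effect; compound concentration not given in the record; the text of the record puts the active cut at -80%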
#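 Calcium fluorescence in TRPML1-DL cells induced overnight with Tet: a 110 s read after compound pin addition, then a 110 s antagonist read after challenge with 54-4 at 4 uM final (EC80).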
# D2 ag: agonists of human D2 dopamine receptor (beta-arrestin); P14416; hit rate 0.084% among 360,000; activation, % (concentration not given with the values); DiscoveRx PathHunter D2 beta-arrestin, luminescence, 90 min; 100% = 57 uM dopamine signal; in the data active = activation above about 40%; inconclusive = about 15% to 40%; inactive = below about 15%; also: compound concentration not given in the record; the text of the record calls up to 30% inactive
# Target sequence (P14416 whole entry, looked up): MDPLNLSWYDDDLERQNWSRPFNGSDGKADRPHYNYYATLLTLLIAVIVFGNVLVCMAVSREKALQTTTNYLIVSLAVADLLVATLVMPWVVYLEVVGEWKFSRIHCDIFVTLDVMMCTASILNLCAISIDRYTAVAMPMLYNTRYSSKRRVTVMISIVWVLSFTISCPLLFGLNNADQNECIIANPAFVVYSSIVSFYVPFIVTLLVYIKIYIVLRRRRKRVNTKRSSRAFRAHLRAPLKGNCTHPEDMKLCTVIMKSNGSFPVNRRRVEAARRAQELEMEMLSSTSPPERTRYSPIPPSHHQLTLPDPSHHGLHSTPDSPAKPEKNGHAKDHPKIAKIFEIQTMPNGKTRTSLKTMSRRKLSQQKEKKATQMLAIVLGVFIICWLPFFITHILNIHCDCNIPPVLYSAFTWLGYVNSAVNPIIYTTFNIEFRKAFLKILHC
#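 DiscoveRx PathHunter D2 beta-arrestin cells (2,100/well) attached overnight, then compound-stimulated 90 min at 37 C in HBSS/10 mM HEPES/0.1% Tween-20 buffer; beta-galactosidase complementation read by luminescence after 1 h at ambient temperature. Dopamine 57 uM final (EC100) as control.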
# D2 PAM: positive allosteric modulators of human D2 dopamine receptor; P14416; DiscoveRx D2 beta-arrestin cells, luminescence, 90 min; 100% = 57 uM dopamine signal; potentiation, % (test concentration not listed); hit rate 0.23% among 360,000; active = potentiation of 50% or more; inconclusive = 30% to 50%; inactive = 30% or less;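 also: compound concentration not given in the record; tested on top of an EC20 dose of dopamine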
#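 PathHunter beta-arrestin assay in DiscoveRx D2 cells. Compounds were added with an EC20 of dopamine (50 nM final) for 90 min at 37 deg C. Luminescence was read 1 h after detection reagent, with 57 uM dopamine as the EC100 control.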
# PINK1 expr mod: PINK1 expression modulation. Potency, µM (highest dose often 76.6 µM), for the others: at the highest dose activation (PINK1 increase), actives largely listed as activators. PINK1 immunofluorescence, high-content cytometry, 24 h. hit rate 0.2% among 410,000; active = well fitted activation curve with a large enough effect; inconclusive = small, poorly fitted or top-dose-only effect; inactive = flat fitted curve, though single readings scatter; cell line not stated here;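 also: potency is read from the fitted curve at half-maximal effect; % of control where 0% means no effect; nearly all actives have a fitted effect of over 65% in size; a mitochondrial uncoupler was the plate control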
#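 Decision-based qHTS: stable cells, 24 h exposure to five compound concentrations, CCCP as control. Fixed cells stained for PINK1 plus nuclear, mitochondrial and cell markers, cytometer read.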
# Active calls of the source: *; ? = inconclusive; / = not tested or not shown; [ ] = another dose, or the depositor's remark. This is a random part of the collection; any-hit rate near 1%.
# The line under a structure holds: TRPML1 agonist, Six1-Eya2 inh, TRPML1 inh, D2 ag, D2 PAM, PINK1 expr mod
CC(=O)Nc1nnc(SCC(=O)c2ccc(F)cc2)s1
→ 1.6, -5, -1, -2.6, -2, -2.1%
CCN(CC)C(=O)Cn1c(=O)n(-c2ccc(C)c(C)c2)c(=O)c2c(C)c(C(=O)N(CC)CC)sc21
→ 0.4, /, -23, /, /, 1.0%
O=C(CNc1ccc2ccccc2c1)N/N=C/c1ccc(C(=O)O)cc1
→ -0.1, -21, 5, 1.5, 7, 1.0%
CCN1CCN(c2c(S(=O)(=O)c3ccc(OC)cc3)cnc3cc(OC)c(OC)cc23)CC1
→ 0.3, /, 11, /, /, 12%
COc1ccc(CCNc2cn[nH]c(=O)c2Cl)cc1OC
→ -0.2, 0, -5, -0.3, -3, 4.2%
COc1ccccc1OCC(=O)NNC(=O)c1ccc(F)c(S(=O)(=O)N2CCOCC2)c1
→ 0.5, 20, 2, -3.5, -24, 0.3%
C=CCn1c(SCC(=O)Nc2cccc(C)c2)nnc1-c1cnccn1
→ -0.1, 3, 15, 0.8, -1, 0.7%
COc1ccc(CNCCS(=O)(=O)NN2CCOCC2)cc1
→ -0.9, 8, 0, -2.1, -2, 0.6%
COC(=O)[C@]1(Cc2ccccc2)N[C@H](CN(C)C(C)=O)[C@@H]2C(=O)N(Cc3ccccc3)C(=O)[C@@H]21
→ -0.8, 1, -10, 0.3, /, 2.1%
CC(=O)N=c1cccc(NC(C)=O)n1O
→ 0.6, 3, -6, 1.7, 8, /
CN(C)CCN(C(=O)c1cccc2ccccc12)c1nc2cc3c(cc2s1)OCO3
→ 1.4, ?, 3, -4.0, -38, 8.3%
COc1ccc(OCCCCN(C)Cc2ccccc2)cc1
→ 0.9, -16, 1, -0.3, -4, 5.7%
COc1ccc(NC(=O)O/N=C/c2ccccc2Cl)cc1
→ 0.9, 0, 1, -3.2, -8, 0.6%
Cc1ccc(Oc2nc3c(c(=O)n(Cc4ccccc4)c(=O)n3C)n2C)cc1C
→ 22, /, -3, /, /, 1.6%
COc1ccc2c(Cl)c(C(=O)N/N=C/c3cccnc3)sc2c1
→ 2.2, 0, 5, 2.7, 1, -0.3%
[N-]=[N+]=CC(=O)CC(c1ccccc1)N1C(=O)c2ccccc2C1=O (stereo unspecified)
→ -0.3, -17, 5, -1.5, -24, 0.2%
COc1ccc(-c2nn(-c3ccccc3)cc2C2NC(=O)NC(C)=C2C(=O)OC(C)C)cc1OC (stereo unspecified)
→ 0.1, /, -3, /, /, -5.1%
COc1ccc2ccccc2c1/C=N/NC(=O)c1nnn(-c2nonc2N)c1C(C)C
→ 0.2, -19, 17, -0.1, -29, 0.9%
COc1cc(-n2c(=O)c3ccccc3n(Cc3ccccc3)c2=O)cc(OC)c1OC
→ -1.1, -1, 2, -3.7, -3, -2.0%
Cc1cc(C(=O)COC(=O)c2ccc(Cl)c(S(N)(=O)=O)c2)c(C)n1CC1CCCO1 (stereo unspecified)
→ 0.4, -9, 19, 0.5, 13, 1.6%
O=S(=O)(c1ccccc1)c1nnn2c1nc(NCc1ccccc1)c1sccc12
→ -0.3, /, -5, /, /, 3.1%
COCCNc1nc(NCCOc2ccccc2)c2sc(-c3ccccc3)cc2n1
→ -0.6, 1, /, -3.4, -19, ?
COc1ccccc1NC(=O)c1nn(-c2cccc(C(F)(F)F)c2)ccc1=O
→ 0.9, -10, -4, -1.9, 2, 14%
O=C(NCc1ccco1)C1Cc2cc(Cl)ccc2O1 (stereo unspecified)
→ -0.3, 4, -11, -1.4, -2, 2.9%
COC(=O)c1ccccc1CCC(C)=O
→ -0.8, 4, -16, -0.7, -9, -0.6%
Cc1cc(C(=O)OCC(=O)NCc2ccc3c(c2)OCO3)c2ccccc2n1
→ 0.4, -19, 16, -2.6, 2, -0.6%
O=C(N/N=C/c1ccoc1)c1ccccc1F
→ 0.8, 0, 5, -2.5, -6, 1.4%
O=C1NC[C@H](Cc2ccc(O)cc2)N(C[C@@H]2CCCN2C[C@H](Cc2ccccc2)N2C[C@H](Cc3ccccc3)N(CCc3ccccc3)C(=O)C2=O)C1=O
→ 8.1, 3, /, /, /, 4.9%
CC1(C)CC[C@]2(C(=O)O)[C@H](O)C[C@]3(C)C(=CCC4[C@@]5(C)C[C@H](O)[C@H](O)[C@@](C)(CO)C5CC[C@]43C)[C@@H]2C1 (stereo partly specified)
→ 0.2, 12, -14, 2.9, -2, 2.5%
CC(=O)Nc1cccc(C(=O)NC2CCCc3c2cnn3-c2ccccc2F)c1 (stereo unspecified)
→ 0.6, 0, 24, 1.6, -8, -0.4%
O=C(O)c1ccc(OCC(F)(F)F)nc1
→ 0.6, 1, -1, -1.5, -1, -0.7%
COc1ccc(C)c2sc(N3CCCC3)nc12
→ 1.5, -3, -10, -3.8, -18, -2.2%
COCCn1c(=S)[nH]c2sc3c(c2c1=O)CCC(C)C3 (stereo unspecified)
→ -0.4, -1, -13, -4.5, 2, 2.2%
COc1cccc(/C=C/C(=O)OCC(=O)NC(=O)NC2CCCC2)c1
→ 0.9, -3, 7, -2.2, -11, 2.5%
CSc1cccc(NC(=O)C2C3C=CC4(O3)C2C(=O)N(CCN2CCOCC2)C4C(=O)NC2CCCCC2)c1 (stereo unspecified)
→ 0.7, 0, 27, 0.2, -8, 3.9%
COc1ccccc1OCCNc1ccc(S(=O)(=O)N2CCCC2)cn1
→ -0.2, 2, 14, 3.0, 10, -2.9%
CCOc1ccc(Nc2oc(Cc3ccccc3)nc2C#N)cc1
→ 2.3, -24, 23, 5.1, 25, 1.8%
CSc1ccc(/C=C(\NC(=O)c2ccc(C)cc2)C(=O)NN)cc1
→ -0.1, 2, 14, -4.7, -25, 1.5%
CCN(C(=O)CN1C=NS(=O)(=O)c2ccccc21)c1ccccc1
→ -0.2, 0, -2, -3.4, -11, 1.7%
COc1ccc(-c2cn3c(n2)sc2cc(C(=O)NCc4ccccc4)ccc23)cc1
→ -0.4, /, -11, /, /, 0.2%
O=C(CNC(=O)c1cccc(OC(F)F)c1)OCC(=O)c1ccccc1
→ -0.2, 4, 18, 3.5, 1, -1.4%
O=C(c1ccc2c(c1)N(Cc1ccccc1)C(=O)c1ccccc1S2=O)N1CCC(Cc2ccccc2)CC1 (stereo unspecified)
→ 0.0, /, 4, /, /, 0.7%
CCCn1c(=N)c(C#N)cc2c(=O)n3ccccc3nc21
→ 0.2, 0, -8, -4.7, -5, 1.1%
COc1ccc(NC(=O)c2c(C)oc3ccc(O)c(CN4CCN(Cc5ccccc5)CC4)c23)cc1Cl
→ -0.2, /, 12, /, /, 2.0%
COc1ccc2c(c1)C(CC(C)=O)N(c1ccc(-c3cccs3)cc1)C(c1ccsc1)=C2 (stereo unspecified)
→ -0.2, 33, /, /, /, 5.9%
COc1ccc(CN(C)C(=O)c2ccc(NS(=O)(=O)c3ccc4[nH]c(=O)[nH]c4c3)cc2)c(OC)c1OC
→ 0.1, 4, -11, -3.0, -6, 0.0%
COc1ccc(S(=O)(=O)N2CCC(C(=O)N[C@@H](C)C(=O)NCc3ccccc3OC)CC2)cc1
→ -1.1, 2, 3, 1.5, 3, -0.3%
O=C(NNC(=O)c1cc2ccccc2cc1O)Nc1ccccc1F
→ -0.1, -7, -13, -6.1, -32, 1.5%
Cc1cccc(-c2cnn(-c3cccc([N+](=O)[O-])c3)c2N)c1
→ 0.7, -17, 10, 0.7, 1, 0.6%
CC(=O)Nc1c(C#N)c(-c2ccccc2)c(C#N)c(=O)n1-c1ccc(C)cc1
→ -0.4, -3, -10, -4.3, -3, 0.7%

# An excerpt of these results, in CSV form.
Structure,TRPML1 agonist,Six1-Eya2 inh,TRPML1 inh,D2 ag,D2 PAM,PINK1 expr mod
COc1ccc(S(=O)(=O)N2CCC(C(=O)N[C@@H](C)C(=O)NCc3ccccc3OC)CC2)cc1,-1.1,2,3,1.5,3,-0.3%
O=C(NNC(=O)c1cc2ccccc2cc1O)Nc1ccccc1F,-0.1,-7,-13,-6.1,-32,1.5%
Cc1cccc(-c2cnn(-c3cccc([N+](=O)[O-])c3)c2N)c1,0.7,-17,10,0.7,1,0.6%

# Next section
# The line under a structure holds: TRPML1 agonist, Six1-Eya2 inh, TRPML1 inh, D2 ag, D2 PAM, PINK1 expr mod
Nc1nnc(CC(=O)N/N=C/c2ccc(-c3ccc(Cl)cc3Cl)o2)s1
→ 1.1, -6, 8, -1.6, -12, ?
CCOC(=O)C1=C(C)N=C2SC(C(=O)OC)=CC(=O)N2C1c1cc(OC)c(OC)c(OC)c1 (stereo unspecified)
→ -0.4, -5, -2, -4.7, -1, 0.3%
COc1ccccc1OCc1ccc(C(=O)n2nc(C)c(Cl)c2C)o1
→ 3.4, 17, 4, -3.0, -9, 9.8%[38.3 µM]
NC(=O)Nc1ccc(Oc2ncc(C(F)(F)F)cc2Cl)cc1
→ -0.6, 8, -6, -5.1, -11, 3.6%
CC(=O)Nc1ccccc1C(=O)N1CC(C)OC(C)C1 (stereo unspecified)
→ 0.9, 11, -2, -0.6, -16, -0.5%
Cc1ccc(S(=O)(=O)NCCSCc2ccccc2)cc1
→ 1.1, 11, -11, -2.9, -3, 1.4%
O=C(c1cccs1)c1sccc1Cc1ccccc1
→ 5.3, 28, 32, 0.8, -1, 2.1%
C=C1CCN([C@@H](Cc2ccccc2)C(=O)NCc2ccc(Cl)cc2)S(=O)(=O)c2ccccc21
→ 2.2, -4, -17, -0.6, -11, 1.5%
c1ccc(Cn2nnc3c(N4CCc5ccccc54)ncnc32)cc1
→ -0.3, 1, 10, -0.7, -20, 5.2%
CCOC(=O)[C@]12CCC=C1N(Cc1ccco1)C(=O)[C@H](CC(=O)NCC1CCCCC1)C2
→ -1.1, -3, /, /, /, -0.1%
O=C(NCC1CCCO1)C1CCN(S(=O)(=O)c2ccc(Br)cc2)CC1 (stereo unspecified)
→ -0.4, 2, -2, -9.2, 0, 0.7%
Cc1cccc(NC(=S)NC2CC3CCCC(C2)N3Cc2ccccc2)c1C (stereo unspecified)
→ 0.5, -7, -13, -2.4, -21, -0.8%
COC(=O)c1sc(N2C(=O)C(O)=C(C(=O)c3ccc(C)o3)C2c2ccc(F)cc2)nc1C (stereo unspecified)
→ 0.7, -1, 13, 3.3, -9, -4.1%[38.3 µM]
CC(=O)c1cccc(NS(=O)(=O)N2CCCCC2)c1
→ 1.7, 1, -17, -1.6, -12, -0.7%
COC(=O)CNC(=O)COC(=O)c1cc(SC)ccc1Cl
→ 1.2, 1, 12, 4.6, 6, 1.1%
O=C(CCn1c(=S)oc2ccccc21)Nc1cccc(O)c1
→ 0.7, 2, -7, -4.7, -6, 0.0%
CCn1c(C)cc(/C=C2\NC(=O)N(Cc3ccc(Cl)cc3)C2=O)c1C
→ -0.2, -17, 3, 0.1, 1, 16%[38.3 µM]
